Screens from PubChem BioAssay.
Sfp PPTase inh: Sfp phosphopantetheinyl transferase inhibition | actives 3.5% (n = 310,000) | Biochemical Sfp PPTase activity, qHTS | Potency, µM, inactives show max response, negative = inhibition, most hits filed as inhibitors | AID 1490; active = well fitted inhibition curve with a large enough effect; inconclusive = small, poorly fitted or top-dose-only effect, or another doubt; inactive = no such curve, though single readings can be large or run the other way;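 also: the enzyme is Sfp with the accession as filed and its product quenches rhodamine fluorescence; potency is read from the fitted curve at half-maximal effect; 0% = enzyme reaction without inhibitor and -100% = no enzyme wells; top concentration of the series not given in the record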
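Sfp 15 nM + cpd, 15 min RT; start w/ rhodamine-CoA 5 uM, BHQ-2-YbbR 12.5 uM (final); 50 mM Hepes pH 7.6, 10 mM MgCl2, 0.01% NP-40, 0.01% BSA; read 525/598 nm at 0 and 30 min.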
TRPV1 PAM: human TRPV1 potentiation; actives 0.02% (n = 320,000); AID 540277; potentiation, % at 8.33 µM; TRPV1-expressing cells, Fluo-8 calcium influx, capsaicin EC20 potentiation; host cell line not named in the record; control for the full effect not named in the record; active means potentiation above 80%; inconclusive means 30% to 80%; inactive means below 30%; also: 0% is about no effect
Target sequence (Q8NER1 whole entry, looked up): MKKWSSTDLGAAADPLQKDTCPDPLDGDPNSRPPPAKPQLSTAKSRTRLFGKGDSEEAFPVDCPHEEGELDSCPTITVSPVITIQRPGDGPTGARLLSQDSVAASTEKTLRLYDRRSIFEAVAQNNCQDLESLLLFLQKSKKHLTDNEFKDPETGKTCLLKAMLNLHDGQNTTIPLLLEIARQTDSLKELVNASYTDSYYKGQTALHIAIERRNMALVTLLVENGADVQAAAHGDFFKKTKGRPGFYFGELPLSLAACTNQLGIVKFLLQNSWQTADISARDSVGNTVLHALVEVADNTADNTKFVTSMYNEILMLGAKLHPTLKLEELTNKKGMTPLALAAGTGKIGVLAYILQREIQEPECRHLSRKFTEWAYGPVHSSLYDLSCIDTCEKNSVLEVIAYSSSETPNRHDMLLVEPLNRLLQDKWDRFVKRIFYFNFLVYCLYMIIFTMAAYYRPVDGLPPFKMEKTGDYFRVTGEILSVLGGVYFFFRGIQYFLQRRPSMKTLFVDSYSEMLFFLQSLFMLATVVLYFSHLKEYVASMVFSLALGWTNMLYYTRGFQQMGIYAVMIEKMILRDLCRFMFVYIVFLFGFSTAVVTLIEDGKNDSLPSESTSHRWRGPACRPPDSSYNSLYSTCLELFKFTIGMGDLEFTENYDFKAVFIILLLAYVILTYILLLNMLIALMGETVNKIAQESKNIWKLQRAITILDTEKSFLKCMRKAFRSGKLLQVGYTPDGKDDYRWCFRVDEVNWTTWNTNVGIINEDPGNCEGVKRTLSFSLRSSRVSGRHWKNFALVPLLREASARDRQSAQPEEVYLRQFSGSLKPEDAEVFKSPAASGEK
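TRPV1-expressing cells were cultured overnight at 35.5C and loaded with Fluo-8 calcium dye for 40 to 90 min at room temperature. After a 10 s baseline, compound was added and calcium influx was read kinetically for 3 min (ex 480/em 520 nm).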
ClpP mod: qHTS Assay for Activators of ClpP | purified B. subtilis ClpP, FRET peptide cleavage, 20 min | Potency, µM (doses to about 57.5 µM), inactives show at the top dose activity change, negative = active | actives 1.9% (n = 340,000) | AID 651965, 2013; active = well fitted falling curve with a large enough effect; inconclusive = small, poorly fitted or top-dose-only effect; inactive = no such curve, though single readings can be large or run the other way; also: potency is read from the fitted curve at half-maximal effect; the source files actives as falling curves though it sought activators and does not explain the sign; nearly all actives have a fitted effect of over 65% in size; many hits overshoot -100%
Target sequence (P80244 whole entry, looked up): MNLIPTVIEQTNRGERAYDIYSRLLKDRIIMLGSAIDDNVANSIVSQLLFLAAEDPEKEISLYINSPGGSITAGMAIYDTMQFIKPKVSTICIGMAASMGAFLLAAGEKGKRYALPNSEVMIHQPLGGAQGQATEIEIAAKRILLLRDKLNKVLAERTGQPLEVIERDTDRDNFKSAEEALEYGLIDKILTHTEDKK
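FRET quenching reversal measured ClpP activation: 10 microg/mL B. subtilis ClpP at pH 8 with the FRET-FV decapeptide, read at 430 nm after 320 nm excitation. The 20-min minus 0-min signal was scaled between DMSO/no-enzyme wells and ADEP (5.8 microM final).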
TRPML1 inh: inhibitors of human TRPML1 channel; Q9GZU1; TRPML1-inducible cells, Ca2+ dye fluorescence, FDSS; hits give low values; inhibition of EC80 agonist-evoked calcium signal; activity change, negative = inhibition, % (no concentration beside the values); actives 0.02% (n = 390,000); AID 624415; in the data active means activity change below about -50%; inconclusive means about -30% to -50%; inactive means above about -30%;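 also: stimulus is agonist 54-4 at its EC80 concentration; % is scaled to controls: 0 for no effect and ±100 for the full control effect; compound concentration not given in the record; the text of the record puts the active cut at -80%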
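TRPML1-DL cells, Tet-induced overnight (~16 h, 37 °C) at 1,500 cells/well, were loaded with Ca8 no-wash dye plus quencher for 45-90 min at room temperature. Compounds were pinned during FDSS kinetic reading; agonist 54-4 at EC80 (4 uM final) then added.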
Menin MLL FP FL: inhibitors of human menin-MLL interaction, wild-type MLL peptide; Fluorescence polarization, fluorescein-MLL peptide displacement from menin; 290,000 tested, under 10 active; FP activity change, % at 61.4 µM; inconclusive = falling polarisation curve, or a change in total fluorescence; inactive = total fluorescence flat and polarisation flat or rising; no compound was filed as active; the % refers to the polarisation; negative = inhibition;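 also: % of control where 0% means no effect; inhibitors lower the polarisation; unlabelled MLL peptide was the positive control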
gsp antag: gsp mutant antagonism; gsp-mutant cells, cAMP HTRF, 30 min; control for the full effect not named in the record; AID 624288; Potency, µM (series often up to 76.9 µM), for inactives: top-dose activity change, negative = inhibition, hits mostly inhibitors; actives 0.4% (n = 340,000); active = falling curve of any shape with a large fitted effect; inconclusive = falling curve, mostly with a smaller effect; inactive = flat or rising curve; cell line not stated here;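 also: intracellular cAMP measured with PDE inhibitor Ro 20-1724 present during compound exposure; potency is read from the fitted curve at half-maximal effect; % is scaled to controls: 0 for no effect and ±100 for the full control effect; nearly all actives have a fitted effect of over 65% in size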
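HTRF cAMP read-out (cAMP-d2 plus anti-cAMP antibody-K in lysis buffer, 30 min RT). Before lysis, cells are exposed to compounds with […] for 30 min at 37C in DPBS containing Ca/Mg, BSA and Tween 20.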
gsp ag: gsp mutant agonism | gsp mutant cells, cAMP HTRF, 30 min; control for the full effect not named in the record | Potency, µM (highest dose often 76.9 µM), inactives show top-dose activation (cAMP increase), usual class: activators | actives 0.13% (n = 340,000) | AID 624287; active = well fitted activation curve with a large enough effect; inconclusive = small, poorly fitted or top-dose-only effect, or another doubt; inactive = no such curve, though single readings can be large or run the other way; cell line not stated here;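 also: phosphodiesterase inhibitor Ro 20-1724 added with compounds to block cAMP breakdown; potency is read from the fitted curve at half-maximal effect; nearly all actives have a fitted effect of over 60% in size; about a fifth of the inactives were tested at one dose only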
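Cells stably selected in G418 were plated at 2000/well, grown 16-24 hr, then given compounds in DMSO with the PDE inhibitor […] (300 uM solution added) for 30 min at 37C; cAMP was read by HTRF.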
* = called active by the depositor; ? = inconclusive; / = no result given; & = joins results of further samples; [ ] = remark or other dose.

SMILES	Sfp PPTase inh	TRPV1 PAM	ClpP mod	TRPML1 inh	Menin MLL FP FL	gsp antag	gsp ag
Cc1ccnc(NC(=O)CS(=O)(=O)Cc2ccccc2)c1	2.2%	-11.1	-11.7%	40.7	2.6	7.9%	7.5%
Cc1nc([N+](=O)[O-])cn1CC(=O)c1ccc(F)cc1	10.3%	10.9	0.0%	-9.6	1.5	-4.0%	-20.9%[15.4 µM]
CC[C@@H](C)[C@H](NC(=O)CNC(=O)Cc1c(C)c2c(cc(C)c3c(C)coc32)oc1=O)C(=O)O	4.4%	-1.0	4.6%	-2.1	0.6	-5.4%	11.7%
CC(/C=C\c1cccnc1)=C/C(=O)O	-9.6%&-4.1%	-14.1&-0.7	2.2%&2.0%	-16.9&0.2	-9.0&3.8	3.0%&-4.7%	-1.3%&7.2%
COc1cc(OC)cc(C(=O)NCc2ccc3[nH]c(C)cc3c2)c1	-4.7%	2.8	0.3%	-0.8	2.8	-11.5%	-18.4%
CCCCn1c(N)c(N(CC(C)C)C(=O)C2CCN(S(=O)(=O)c3ccccc3)CC2)c(=O)[nH]c1=O	/	1.3	-5.1%	6.4	/	7.6%	-0.4%[15.4 µM]
C=CCn1c(SCC(=O)c2cccs2)nnc1-c1cccc(OC)c1	-29.9%	2.3	-1.5%	0.9	-0.2	-1.0%	-21.6%
Cc1nnsc1C(=O)N(Cc1ccccc1)C(C)C	19.4%	20.4	-1.8%	5.8	-0.7	-6.3%	-8.5%
O=C(Nc1cnccn1)c1csc2ccccc12	10.2%	-0.2	-1.8%	-23.2	1.1	9.7%	27.2%
CCCCNC(=O)N(CC)c1c(N)n(Cc2ccccc2)c(=O)[nH]c1=O	17.1%	-6.2	/	-9.9	-0.9	-29.8%	8.7%[15.4 µM]
CN(C)CCCNc1nc(-c2ccc(Cl)cc2)nc2ccccc12	8.7%	14.3	-1.1%	/	1.0	1.5%	?
O=C(COc1ccccc1Br)NCc1ccco1	19.1%	12.7	-1.9%	-5.5	4.2	0.8%	1.2%
Cc1nnc(SCC(=O)c2cc(C)n(C3CC3)c2C)s1	-11.3%	1.2	-2.9%	15.4	1.2	1.3%	-34.2%[inhibitor]
O=C(OCC(=O)c1ccc[nH]1)c1ccc(S(=O)(=O)N2CCCCC2)cc1	1.9%	-20.1	/	/	0.8	/	/
CN(Cc1cnn(C)c1)Cc1nc(COc2ccccc2)no1	14.8%	9.4	/	-1.2	-6.1	8.3%	1.6%[15.4 µM]
CN(C)S(=O)(=O)c1ccc(N2CCCC2)c(C(=O)Nc2nc3ccc(F)cc3s2)c1	-11.2%	21.8	-11.0%	-0.2	5.1	-3.3%	22.0%
COc1ccc(NC(=O)CN(C)C2CCCCC2)c([N+](=O)[O-])c1	14.4%	-15.2	1.2%	16.0	4.0	8.9%	-11.6%
Cc1cc(=O)oc2c3c(cc(OCC(=O)NCc4cccnc4)c12)OC(C)(C)CC3	11.5%	-31.3	5.0%	/	3.9	2.8%	/
Cc1ccc(NC(=O)COC(=O)c2oc3ccccc3c2C)cc1S(=O)(=O)N1CCOCC1	/	?	-1.9%	-4.0	/	-2.0%	?
CCOC(=O)C1CCN(C(=O)CSc2nnc(-c3ccco3)n2-c2ccccc2)CC1	10.1%	-6.3	6.1%	7.3	1.8	1.2%	0.0%
COc1ccc2oc(=O)cc(CN(C)Cc3ccccc3)c2c1	-9.8%	-0.5	/	-6.7	4.6	-12.3%	-23.0%
O=S1(=O)N[C@@H](CC2CCCCC2)COc2cc(Br)ccc21	/	/	-3.6%	17.3	/	-9.0%	/
O=C(NCc1ccc(Cl)cc1)C1CCN(C(=O)c2ccc(Cl)cc2)CC1	/	23.9	-3.1%	-10.7	/	-2.3%	10.9%
CC(C)(O)C#Cc1ccc(CNC[C@H]2O[C@@H](n3cnc(C(N)=O)n3)[C@H](O)[C@@H]2O)s1	/	/	1.3%	-7.4	/	9.5%	/
COC(=O)c1c(NC(=O)c2ccco2)sc(C(=O)N2CCCC2)c1C	13.9%	26.1	-2.0%	-7.4	-2.7	17.4%	-1.4%
The list continues.
SMILES	Sfp PPTase inh	TRPV1 PAM	ClpP mod	TRPML1 inh	Menin MLL FP FL	gsp antag	gsp ag
Cc1onc(-c2ccccc2)c1C(=O)NCCc1c[nH]c2ccccc12	13.7%	-8.9	-1.4%	-4.8	-4.1	0.7%	-33.6%
COc1cccc(N/C=C/C(=O)c2ccc(C)cc2)c1	-3.7%	-12.6	-4.1%	7.0	-0.5	-13.5%	-27.7%
CC1(C)OC(=O)CC1C(=O)NCc1ccccc1 (configuration not stated)	2.8%	-11.6	-1.0%	-0.7	2.7	17.8%	-6.4%
O=C(OCC(=O)N1CCN(C(=O)COC(=O)c2ccccc2NCCO)CC1)c1ccccc1NCCO	/	/	3.8%	-11.3	/	2.1%	-2.1%
CCc1nnc(NS(=O)(=O)c2ccccc2)s1	12.4%	28.0	/	14.5	2.6	-6.2%	21.3%
CN(C)S(=O)(=O)c1ccc(Cl)c(C(=O)OCC(=O)NC(=O)NC2CCCC2)c1	/	8.1	1.4%	11.9	/	1µM*	-9.9%
CC(C)CC(=O)Nc1ccc(F)c(Cl)c1	4.9%	-25.0	-2.4%	5.0	1.7	0.4%	-13.5%
O=C(NCC(c1ccco1)N1CCN(c2ccccc2)CC1)C1CCCCC1 (configuration not stated)	/	/	1.1%	8.8	/	/	-49.6%[inhibitor]
OCCCC1CCCCN1Cc1nc(Cc2ccccc2Cl)no1 (configuration not stated)	-11.7%	-4.7	0.5%	-17.6	-5.2	-1.8%	29.6%
CCOc1ccc(S(=O)(=O)NCCC(=O)NCCc2ccc(OCC)c(OCC)c2)cc1	/	5.4	-2.3%	-6.0	/	-10.3%	-53.7%
CC(C)(C)NC(=O)CN1CCCN(C(=O)c2cccc(S(=O)(=O)N3CCc4ccccc43)c2)CC1	/	-59.8	-0.7%	-0.2	/	-13.7%	17.5%
Clc1ccc(/C=N/N2CCN(Cc3ccccc3Cl)CC2)cc1	-14.3%	-5.5	/	1.0	-1.8	0.5%	-9.2%
Cc1cc2ccccc2nc1SCC(=O)N1CCCC1	9.7%	2.0	-1.8%	-7.2	-0.6	6.6%	3.1%
O=C(O)CCS(=O)(=O)c1cccc2cccnc12	12.4%	19.7	-1.6%	16.4	5.2	10.1%	-8.3%
O=C(NCc1n[nH]c(=S)n1-c1cccc(C(F)(F)F)c1)c1ccc(S(=O)(=O)N2CCCC2)cc1	-13.7%	27.4	1.2%	1.4	0.3	57.7%[activator]	10.6%
CCCOc1ccc(NC(=O)CC2Nc3ccccc3NC2=O)cc1 (configuration not stated)	16.7%	0.4	1.0%	22.3	-2.0	1.1%	29.6%
Cc1ccc(NCc2n[nH]c(=S)n2-c2cccc(Cl)c2)cc1	16.5%	-5.3	/	40.2	-0.2	-37.4%	8.8%[15.4 µM]
CC(C)C(OC(=O)c1cc2sccc2n1C)C(=O)NCC1CCCO1 (configuration not stated)	8.9%	-10.8	-2.1%	11.8	-3.2	-1.1%	-3.7%
COc1ccc(N2CCN(C(=O)c3ccc(N(C)S(=O)(=O)c4ccc(OC)cc4)cc3)CC2)cc1	-2.9%	-24.2	/	10.8	-1.7	?	-0.8%[15.4 µM]
CCn1nnc2cc(C(=O)Nc3ccc(C(=O)OC(C)C)cc3)ccc21	/	/	-1.1%	-0.7	/	-2.9%	3.0%[15.4 µM]
Cc1nc(CSc2nnc(N)s2)cs1	5.3%	-11.4	/	23.2	4.7	0.9%	0.3%[15.4 µM]
COc1ccc(Nc2ncnc3ccc(Br)cc23)c(OC)c1	13.7%	-1.5	-2.2%	-24.6	-4.4	-2.8%	9.3%
Cc1ccc(CNC(=O)Cc2ccc(NC3=NC4CS(=O)(=O)CC4S3)cc2)cc1 (configuration not stated)	10.3%	20.5	-2.6%	-3.7	0.2	8.5%	-96.3%[inhibitor]
CC1(C(=O)O)CCC(C(=O)Nc2cccc(F)c2)C1(C)C (configuration not stated)	14.8%	-7.4	/	10.5	-8.6	-0.5%	14.4%
NC(=O)CSc1nnc2ccc(-c3ccc(F)cc3)nn12	-16.3%	5.9	-25.8%	/	-2.6	-2.5%	3.2%
Later entries.
SMILES	Sfp PPTase inh	TRPV1 PAM	ClpP mod	TRPML1 inh	Menin MLL FP FL	gsp antag	gsp ag
Cc1nnc2sc(SCc3ccc(Br)cc3)nn2c1=O	13.0%	5.2	/	3.9	0.0	0.8%	5.1%[15.4 µM]
COc1ccc(C2(C(=O)c3ccccc3)C(=O)c3ccccc3C2=O)cc1	44.7µM*	2.0	0.1%	-0.3	-1.4	-0.2%	-2.7%
COc1cc(OC)cc(C(=O)n2cnnc2N)c1	10.5%	1.6	13.4%	-10.2	2.6	-12.1%	-78.1%[inhibitor]
COc1ccc(CN=CC2=C(O)CC(C)(C)CC2=O)cc1	4.5%	/	3.7%	-9.5	3.7	6.3%	-26.7%
CC(=O)c1ccc(NC(=O)CSc2nc3nn(-c4ccccc4)c(=O)c-3c3n2CCCCC3)cc1	/	/	1.5%	-2.0	/	-17.8%	1.3%
Cc1ccc(OC(=O)C23CC4CC(CC(C4)C2)C3)c(C)n1	-3.3%	-10.4	?	17.2	2.5	8.0%	-1.5%

Among those listed so far, 4 contain a COOH group:
SMILES	Sfp PPTase inh	TRPV1 PAM	ClpP mod	TRPML1 inh	Menin MLL FP FL	gsp antag	gsp ag
CC[C@@H](C)[C@H](NC(=O)CNC(=O)Cc1c(C)c2c(cc(C)c3c(C)coc32)oc1=O)C(=O)O	4.4%	-1.0	4.6%	-2.1	0.6	-5.4%	11.7%
CC(/C=C\c1cccnc1)=C/C(=O)O	-9.6%&-4.1%	-14.1&-0.7	2.2%&2.0%	-16.9&0.2	-9.0&3.8	3.0%&-4.7%	-1.3%&7.2%
O=C(O)CCS(=O)(=O)c1cccc2cccnc12	12.4%	19.7	-1.6%	16.4	5.2	10.1%	-8.3%
CC1(C(=O)O)CCC(C(=O)Nc2cccc(F)c2)C1(C)C (configuration not stated)	14.8%	-7.4	/	10.5	-8.6	-0.5%	14.4%
